Assay outcomes deposited in PubChem BioAssay by several laboratories.
Vif TR-FRET – HIV-1 Vif–A3G interaction blockers – biochemical, TR-FRET, GST-Vif 1-94, biotin-A3G peptide, dose response retest, primary screen (AID 1117319). TR-FRET GST-Vif / biotin-A3G peptide binding; higher % means a stronger effect; test concentration not given here; strong numbers were not always called active. actives 0.57% (n = 260,000). one-dose inhibition, %; IC50 in µM for titrated hits;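 active = above the screen mean plus three standard deviations and confirmed in dose response; inconclusive = results disagree or hit not tested in dose response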;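 note: Vif residues 1-94 fused to GST binding biotinylated APOBEC3G peptide 110-148; 0% = full assay without inhibitor and 100% = GST in place of GST-Vif; retest series ran down from 100 µM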
UCH37 inh – inhibitors of human deubiquitinating enzyme UCH37. AID 588478. Q9Y5K5. purified proteasome/UCH37, Ub-AMC cleavage fluorescence. inhibition, % (no concentration beside the values). actives 0.33% (n = 330,000);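 active = mean of two replicates above 20%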;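 note: 0% = compound-free wells with enzyme and 100% = wells lacking proteasome; stock transfer was 100 nL into about 20 µL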
Target sequence (Q9Y5K5 whole entry, looked up): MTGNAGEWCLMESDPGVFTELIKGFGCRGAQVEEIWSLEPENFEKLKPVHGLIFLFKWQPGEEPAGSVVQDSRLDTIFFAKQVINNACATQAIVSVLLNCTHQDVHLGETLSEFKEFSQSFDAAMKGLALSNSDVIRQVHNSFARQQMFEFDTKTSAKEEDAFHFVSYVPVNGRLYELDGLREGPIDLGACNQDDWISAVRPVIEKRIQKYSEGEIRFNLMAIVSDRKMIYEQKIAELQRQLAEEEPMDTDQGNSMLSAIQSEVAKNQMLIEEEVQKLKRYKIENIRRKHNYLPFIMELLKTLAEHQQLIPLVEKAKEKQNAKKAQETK
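Test system – human UCH37 enzyme supplied as purified proteasome complex · Incubation – 30 min preincubation with enzyme, 25 min cleavage at room temperature · Detection – AMC fluorescence from Ub-AMC cleavage, excitation 355 nm, emission 460 nm · Benchmarks – no-proteasome wells (full inhibition) and compound-free wells (no inhibition)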
E coli growth – E. coli growth inhibition; actives 0.21% (n = 330,000); OD600 absorbance (test concentration not listed); AID 1053175; Escherichia coli growth, OD600, 23 h; active compounds read low;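 active = OD600 absorbance below the run mean of sample wells minus 3.6 SD, in any replicate, cut at about 0.56 in these data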;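 note: stock transfer was 300 nL into about 60 µL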
HNF4A DNA FP – change in binding of human HNF4 alpha to DNA. P41235. HNF4a-FITC DNA binding, fluorescence polarization, 1 h. activity change, % at 10 µM. actives 0.3% (n = 360,000); in the data active = activity change above about 30%, passing the limit was not always enough;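 note: controls were the assay level and a saturating level of protein; the project sought stronger binding though the title names inhibitors; some compounds called inactive have numbers as strong as hits; positive values seem to mean higher polarization but the record does not say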
RanGTP-Imp inh – inhibitors of RanGTP-importin-beta interaction, primary screen, biochemical, FRET, CFP-Ran, YFP-importin-beta, homogeneous; cell-free CFP-Ran/YFP-importin-beta FRET ratio; inhibition, % (concentration not given with the values); actives 1.1% (n = 300,000); AID 2216;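 active = most replicates above 15%; inconclusive = exactly half above 15%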;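 note: 0% = DMSO wells and 100% = Ran loaded with GDP instead of GTP; wells of about 40 µL received 100 nL stock; the first replicate is given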
MLL AF4-AF9 inh – MLL-AF4/AF9 protein interaction inhibition; AID 651704; inhibition, % at 10 µM; P42568; AlphaScreen, biotin-AF4 peptide binding to FLAG-AF9; actives 0.47% (n = 350,000);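 active = every replicate reaching a set inhibition limit, whatever the replicate mean, cut at about 25% in these data; inconclusive = mean inhibition reaches that limit but some replicates miss it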;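 note: 0% = plate neutral control median and 100% = total signal loss; the record names both 10 and 1 µM as test concentration; the first replicate is given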
Target sequence (P42568 whole entry, looked up): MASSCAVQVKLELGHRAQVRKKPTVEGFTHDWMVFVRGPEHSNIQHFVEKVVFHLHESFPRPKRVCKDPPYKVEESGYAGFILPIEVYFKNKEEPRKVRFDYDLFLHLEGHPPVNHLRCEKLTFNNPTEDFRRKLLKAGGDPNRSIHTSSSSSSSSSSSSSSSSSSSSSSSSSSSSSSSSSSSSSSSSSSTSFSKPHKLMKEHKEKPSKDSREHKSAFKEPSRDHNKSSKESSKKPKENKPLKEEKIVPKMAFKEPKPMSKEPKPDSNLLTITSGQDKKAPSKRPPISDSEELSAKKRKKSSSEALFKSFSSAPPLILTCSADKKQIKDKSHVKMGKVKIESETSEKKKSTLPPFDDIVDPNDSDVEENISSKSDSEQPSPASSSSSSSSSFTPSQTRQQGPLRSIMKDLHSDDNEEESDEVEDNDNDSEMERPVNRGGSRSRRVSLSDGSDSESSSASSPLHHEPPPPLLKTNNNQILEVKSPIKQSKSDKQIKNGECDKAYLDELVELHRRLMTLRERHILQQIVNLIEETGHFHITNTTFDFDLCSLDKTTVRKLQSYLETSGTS
FGF22 binding – binders of recombinant human FGF22 by thermal shift. Q9HCT0. SYPRO orange fluorescence; percent of sucrose octasulfate shift, DMSO zero. calls only at 9.99 µM. actives 1.5% (n = 340,000);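 active = melting point raised past a set limit in the mean and every replicate; inconclusive = no clear call; three in four hits are not shown here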
Target sequence (Q9HCT0 whole entry, looked up): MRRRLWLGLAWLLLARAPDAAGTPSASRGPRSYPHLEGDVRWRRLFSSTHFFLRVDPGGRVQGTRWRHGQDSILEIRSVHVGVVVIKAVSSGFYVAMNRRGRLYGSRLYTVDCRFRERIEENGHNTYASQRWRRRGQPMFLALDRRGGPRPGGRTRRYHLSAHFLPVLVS
Starred values were filed as active, the others as inactive; i = inactive; ? = inconclusive; · = not tested or not shown.

Values run as follows: E coli growth	FGF22 binding	MLL AF4-AF9 inh	UCH37 inh	HNF4A DNA FP	RanGTP-Imp inh	Vif TR-FRET
- O=C(O)c1cccc(-c2ccc(/C=C3/SC(=Nc4ccccc4)N(Cc4cccnc4)C3=O)o2)c1
    0.657	i	-0.6	7.6	-13.2	4.2	18.2%
- O=C(Cn1cnc2ccccc2c1=O)NCc1ccc2c(c1)OCO2
    0.747	·	·	-4.4	-0.5	·	?
- O=C(Nc1cccc(S(=O)(=O)N2CCOCC2)c1)C1CCCCN1S(=O)(=O)c1ccccc1 (stereo unspecified)
    0.657	·	1.4	1.5	1.7	·	3.0%
- COc1ccc(OC)c(NC(=O)NCc2ccc(F)cc2)c1
    0.707	·	·	1.0	1.6	-1.2	58.5µM*
- COc1ccc(-c2csc(NCc3ccco3)n2)cc1C
    0.718	·	·	-5.6	-1.6	7.2	22.0%
- Cc1ccc(NC(=O)c2ncn(CCCN3CCN(c4ccccn4)CC3)n2)cc1C
    ·	i	2.1	·	2.7	·	·
- Cc1nc2scc(C)n2c(=O)c1S(=O)(=O)NCc1ccc(F)cc1
    0.684	i	-1.5	-79.4	-2.9	-1.1	·
- O=C(CCS(=O)(=O)c1ccc2c(c1)NC(=O)CS2)NCCc1ccc(Cl)cc1
    0.672	i	2.3	3.8	4.0	2.4	-6.2%
- CC(C)CN(CC(C)C)c1ccc(/C=N/n2cnnc2)cc1[N+](=O)[O-]
    ·	i	9.0	·	1.7	-0.7	-11.8%
- Cc1[nH]ncc1Nc1c(C(C)C)cccc1C(C)C
    ·	i	10.2	·	0.3	·	·
- O=C(NCc1cccnc1)c1cc([N+](=O)[O-])ccc1N1CCOCC1
    0.67	i	-3.8	9.8	-1.0	1.7	?
- OCCN1CCN(c2nc(-c3ccccc3)c3cc(Br)ccc3n2)CC1
    0.612	i	8.9	-26.9	1.4	10.0	·
- C=CCOc1ccc(Cl)cc1CNCCCN1CCOCC1
    0.659	·	·	4.2	-2.5	?	-2.9%
- CCn1c(SCc2cccc(F)c2)nnc1-c1cccnc1
    0.683	i	-1.7	7.6	1.8	-0.8	·
- Cc1cc(Br)ccc1NC(=O)c1sc2ncnc(N3CCN(c4ccccn4)CC3)c2c1C
    0.648	i	-0.1	-96.2	1.7	-1.7	·
- CCCCn1nnnc1C(c1ccccc1)N1CCN(c2cc(C)ccc2C)CC1 (stereo unspecified)
    ·	i	-2.2	·	1.1	·	·
- CC1CCCN(CCOc2ccc3ccccc3c2Br)C1 (stereo unspecified)
    0.583	i	16.0	7.6	-1.5	-2.2	-3.6%
- CCOC(=O)C1=C(C)N(CCCCCC(=O)O)C(=O)NC1c1ccc(Cl)cc1 (stereo unspecified)
    0.717	i	-1.5	0.7	-6.8	-1.5	·
- O=C1CC(N(O)C2CC(=O)N(Cc3ccccc3)C2=O)C(=O)N1Cc1ccccc1 (stereo unspecified)
    0.693	·	·	-3.2	0.9	2.1	-4.4%
- O=C(CCc1nnc(C2CCCCC2)o1)N1CCCCC1CCn1cccn1 (stereo unspecified)
    0.697	·	-3.4	-1.0	-1.2	2.0	-6.3%
- Cc1ccc(O)c(-c2cc(C(=O)Nc3c(C)n(C)n(-c4ccccc4)c3=O)[nH]n2)c1
    0.699	·	·	2.2	-0.3	-5.2	14.2%
- CC(=O)Nc1ccccc1C(=O)C(=O)Nc1ccc(Cl)cc1
    0.631	i	-1.0	4.3	-0.8	-0.8	-13.5%
- Nc1cc(Cl)ccc1C(=O)OCC(=O)NC1CCS(=O)(=O)C1 (stereo unspecified)
    0.689	·	·	-192.9	-1.1	3.7	-1.6%
- CC1(C)OC(c2ccccc2)=C/C(=C/C=C2C(=O)c3ccccc3C2=O)O1
    0.68	·	2.2	4.0	84.1*	-3.5	?
- COc1ccc(OC)c(/C=C/C(=O)N(C)CC(=O)Nc2cc(C)ccc2C)c1
    0.682	·	·	-336.3	2.4	2.6	16.6%
- COc1ccccc1NC(=O)Cn1c(=O)oc2cc(S(=O)(=O)N3CCCC3)ccc21
    0.755	i	-7.4	8.8	5.4	1.4	·
- CC(C)c1ccc(N(CC(=O)NN=C2CCN(C)CC2)S(=O)(=O)c2ccccc2)cc1
    0.711	i	0.2	3.6	2.0	?	·
- COc1ccc(-c2cc(C)no2)cc1S(=O)(=O)N(C)Cc1ccco1
    0.703	i	-2.4	4.5	-2.4	1.4	·
- COc1ccc(-c2n[nH]c(C)c2-c2cnn(-c3ccccc3)c2)c(O)c1
    0.707	·	·	3.2	8.3	?	-6.3%
- CCOc1ccc(NC(=O)c2ccc(S(=O)(=O)N(C)C)cc2)cc1
    0.655	i	1.9	5.1	-0.9	·	6.4%
- CC1CC(C)CN(S(=O)(=O)c2cc3c4c(c2)C(C)C(=O)N4CCC3)C1 (stereo unspecified)
    0.689	i	-0.7	2.7	2.9	1.7	-2.8%
- COc1ccc(/C(C)=N/NC(=O)CNC(=O)CCc2ccccc2)c(OC)c1
    ·	i	·	·	3.4	-1.0	8.1%
- COc1ccccc1NC(=O)c1cc(-c2ccc(C)o2)nc2ccccc12
    0.69	i	-0.6	-33.1	0.5	2.4	·
- CC1(C)CC(=O)C=C(NCCN2CCN(C(=S)Nc3ccc(F)cc3)CC2)C1
    0.705	i	-1.8	4.7	-1.1	2.1	-2.8%
- O=C(CN1C2=NCCN2c2ccccc21)C12CC3CC(CC(C3)C1)C2
    0.756	·	·	2.8	1.1	-2.0	-3.4%
- COc1ccc([N+](=O)[O-])cc1CSc1nnc(NC(C)=O)s1
    0.709	i	-5.6	3.4	-1.7	0.8	68.9%
- CCOCCCNS(=O)(=O)c1ccc(NC(=O)c2ccc(OC)c([N+](=O)[O-])c2)cc1
    0.695	·	-2.3	2.3	-3.4	3.3	·
- CCc1ccc(NC(=O)[C@H](C)NC(=O)C2CCN(C(=O)[C@@H](N)C(C)C)CC2)cc1
    0.67	i	0.3	-0.9	2.5	-1.8	-7.4%
- CCCCOC(=O)C1=C(C)NC(=O)NC1c1ccc2c(c1)OCO2 (stereo unspecified)
    ·	i	-2.1	·	3.9	·	·
- CN(C)c1ccc(/C=C/CNC[C@H]2O[C@@H](n3ccc(N)nc3=O)[C@H](O)[C@@H]2O)cc1
    ·	i	14.7	·	-0.4	·	-5.3%
- COc1ccccc1-n1c(SCC(=O)Nc2cccc(S(N)(=O)=O)c2)nc2ccccc2c1=O
    0.684	·	1.7	1.1	-1.6	0.6	3.4%
- CCOc1ccc(C(=O)C[n+]2cccc3cc(C)ccc32)cc1
    0.65	i	-2.8	2.9	5.4	-8.3	·
- Cc1oc2ncnc(N)c2c1C
    0.687	·	·	-0.6	-0.5	1.0	27.7%
- Cc1ccccc1OCC(=O)Nc1nnc(-c2ccncc2)s1
    0.628	i	-3.7	-26.4	2.1	0.2	·
- CCOC(=O)N1CCN(C(=O)/C(=C\c2cccs2)NC(=O)c2cccs2)CC1
    0.709	i	1.2	5.4	-0.3	4.2	-7.3%
- CCOc1ccc(N(CC(=O)Nc2cccnc2)S(=O)(=O)c2ccc(C)cc2)cc1
    0.677	i	2.4	2.9	3.1	0.6	3.8%
- Cc1ccc2c(c1)CCCN2CC(=O)Nc1cccc(S(=O)(=O)N2CCCC2)c1
    0.673	i	5.2	3.7	20.2	·	11.6%
- O=c1oc2cc(S(=O)(=O)NCCCO)ccc2c2ccc(S(=O)(=O)NCCCO)cc12
    0.709	i	6.0	-0.1	-1.0	3.8	0.2%
- O=C(CN(C(=O)c1ccc(Cl)cc1)N1C(=O)C2CCCCC2C1=O)c1ccc(Cl)cc1 (stereo unspecified)
    0.644	·	·	-0.4	-1.1	?	1.9%
- CCOc1c2ccc(C(=O)NC3CCCc4ccccc43)cc2nn1CC (stereo unspecified)
    0.659	i	·	-28.1	-0.3	1.1	2.2%

The list goes on.
Values run as follows: E coli growth	FGF22 binding	MLL AF4-AF9 inh	UCH37 inh	HNF4A DNA FP	RanGTP-Imp inh	Vif TR-FRET
- N#Cc1c(N)nc2c(c1-c1ccco1)CCCCC2
    0.749	·	·	-9.1	-0.7	5.1	-0.8%
- Cc1ccc(SCC(=O)NN=C2CCN(C)CC2)cc1
    0.674	i	-1.5	2.9	7.2	-1.3	?
- O=C(CSC1=NCCS1)Nc1cccc2ccccc12
    0.733	·	·	-2.3	3.4	4.0	22.2%
- FC(F)(F)c1ccccc1Cc1c(-c2cccc(Br)c2)nc2c3ccccc3ccn12
    ·	i	-6.0	·	16.0	·	·
- Cc1ccc(-c2cc(-c3ccc(F)cc3)nc(N)c2C#N)o1
    0.742	·	·	-256.9	9.2	13.2	?
- COC(=O)c1ccc(-c2nc(CN3CCC(C(=O)N4CCOCC4)CC3)c(C)o2)cc1
    0.702	·	·	-23.8	-3.6	-1.6	·
- CCC(=O)N1CCc2cc(Br)cc(S(=O)(=O)NCCCN(CC)Cc3ccccc3)c21
    0.668	i	1.0	-0.4	4.2	-1.5	·
- CCOC(=O)C1CCN(C(=O)C2CC(=O)N(c3ccc4c(c3)OCCO4)C2)CC1 (stereo unspecified)
    0.73	i	7.8	1.7	0.1	3.7	-1.4%
- COc1ccc(C(=O)N2CCCCC2c2cc(C(=O)Nc3ccccc3)no2)cc1 (stereo unspecified)
    ·	i	-0.2	·	1.4	·	·
- CN(C)C(/C=C/Nc1cccc(Br)c1)=C(C#N)C#N
    0.652	·	-1.4	0.8	5.8	-0.3	·
- N#Cc1cccc(C(=O)OCC(=O)c2ccc3c(c2)NC(=O)CO3)c1
    0.664	i	-3.8	1.2	-0.7	-0.9	0.9%
- CCc1noc(C)c1C(=O)OCC(=O)N1CCc2ccccc21
    0.688	i	-2.4	-0.4	2.2	·	·
- CCN1CCCC1CNC(=O)c1csc2c1CCCC2 (stereo unspecified)
    0.672	i	1.5	-0.9	3.1	-0.7	-2.4%
- COc1ccccc1NC(=O)c1c(N=Cc2cccc([N+](=O)[O-])c2)cnn1C
    0.664	i	·	3.2	0.8	-2.3	·
- Cc1onc(-c2ccccc2)c1C(=O)Nc1ccc(Cl)c(S(=O)(=O)N2CCOCC2)c1
    0.674	i	0.1	4.5	5.4	·	·
- COCCNC(=O)c1ccccc1NC(=O)c1ccccc1N(C)S(=O)(=O)c1ccccc1
    0.78	·	·	0.4	-1.7	2.5	-2.9%
- CCOC(=O)CC1C(=O)NCCN1S(=O)(=O)c1ccc(F)cc1 (stereo unspecified)
    0.701	i	0.0	4.0	1.8	2.8	·
- Cc1ccnc(NC(=O)COc2ccc3oc4c(c3c2)CCCC4)c1
    0.713	·	·	0.0	-1.9	-1.9	29.5%
- CCOC(=O)N1CCN(C(=O)COc2ccc(S(=O)(=O)NC(C)C)cc2)CC1
    0.657	i	1.4	0.9	-4.5	-3.5	-4.6%
- O=c1[nH]c(=S)[nH]c2c1[C@H](CCc1cccc(Cl)c1)O[C@H](C1CCCC1)C2
    ·	i	-6.5	·	-3.2	·	·
- Cc1ccc(C(=O)OCC(=O)Nc2ccc3c(c2)OCO3)cc1S(=O)(=O)N1CCOCC1
    0.708	·	·	0.3	-2.7	0.5	-7.0%
- O=C(c1cnc2ccccn2c1=O)N1CCCc2ccccc21
    0.698	·	·	12.8	-1.7	0.0	8.8%
- COc1ccccc1NC(=O)CSc1nnc(Cc2cc(=O)[nH]c(=O)[nH]2)n1-c1ccccc1
    0.694	·	·	5.4	-2.5	?	70.4%

Full records from above.
COc1ccccc1NC(=O)CSc1nnc(Cc2cc(=O)[nH]c(=O)[nH]2)n1-c1ccccc1 is listed with E coli growth: 0.694; FGF22 binding: ·; MLL AF4-AF9 inh: ·; UCH37 inh: 5.4; HNF4A DNA FP: -2.5; RanGTP-Imp inh: ?; Vif TR-FRET: 70.4%
COc1ccccc1NC(=O)c1c(N=Cc2cccc([N+](=O)[O-])c2)cnn1C is listed with E coli growth: 0.664; FGF22 binding: i; MLL AF4-AF9 inh: ·; UCH37 inh: 3.2; HNF4A DNA FP: 0.8; RanGTP-Imp inh: -2.3; Vif TR-FRET: ·

This is a subset, so the mix of outcomes need not match the whole.
